From PubChem
TRPV1 potentiator: HTS Assay for Compounds that Act as Potentiators of the Vanilloid Receptor 1 | 0.02% of 320,000 active | potentiation, % at 8.33 µM | AID 540277, 2011 | TRPV1-expressing cells, Fluo-8 calcium influx, capsaicin EC20 potentiation; host cell line not named in the record; control for the full effect not named in the record; active means potentiation above 80%; inconclusive means 30% to 80%; inactive means below 30%; note: 0% is about no effect
Target sequence (Q8NER1 whole entry, looked up): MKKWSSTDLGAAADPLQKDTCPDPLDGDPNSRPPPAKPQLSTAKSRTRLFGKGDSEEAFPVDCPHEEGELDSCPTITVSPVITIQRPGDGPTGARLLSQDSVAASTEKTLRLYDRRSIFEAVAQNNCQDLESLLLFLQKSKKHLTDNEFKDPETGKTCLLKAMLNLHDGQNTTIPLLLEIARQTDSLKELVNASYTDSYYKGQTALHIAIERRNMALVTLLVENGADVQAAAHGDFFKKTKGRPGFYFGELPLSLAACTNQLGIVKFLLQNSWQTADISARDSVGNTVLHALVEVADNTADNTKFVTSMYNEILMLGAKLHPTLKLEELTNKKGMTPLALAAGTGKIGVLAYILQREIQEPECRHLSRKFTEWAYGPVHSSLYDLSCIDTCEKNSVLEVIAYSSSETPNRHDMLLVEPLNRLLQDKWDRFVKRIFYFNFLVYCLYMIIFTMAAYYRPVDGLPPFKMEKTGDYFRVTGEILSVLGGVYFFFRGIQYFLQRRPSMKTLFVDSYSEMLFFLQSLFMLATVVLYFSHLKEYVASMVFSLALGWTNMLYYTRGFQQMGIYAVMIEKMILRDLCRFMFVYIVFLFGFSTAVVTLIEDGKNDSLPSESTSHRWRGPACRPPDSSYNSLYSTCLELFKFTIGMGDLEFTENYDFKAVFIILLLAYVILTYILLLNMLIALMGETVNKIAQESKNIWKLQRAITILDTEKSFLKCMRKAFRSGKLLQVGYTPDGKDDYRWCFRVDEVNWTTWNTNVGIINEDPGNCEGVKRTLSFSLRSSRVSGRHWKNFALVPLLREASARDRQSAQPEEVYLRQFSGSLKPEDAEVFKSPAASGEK
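Fluo-8 calcium influx in TRPV1-expressing cells, kinetic read (ex 480/em 520 nm). Compound added and read 3 min for agonist activity, followed by capsaicin at EC20 final and 2 min further read for enhancement.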
Sfp inh: qHTS Assay for Inhibitors of Bacillus subtilis Sfp phosphopantetheinyl transferase (PPTase) | 4'-phosphopantetheinyl transferase ffp (Bacillus subtilis), Q9F4F7 | Biochemical Sfp PPTase activity, qHTS | Potency, µM, for inactives: max response, negative = inhibition, hits mostly inhibitors | 3.5% of 310,000 active | AID 1490, 2009; active = well fitted inhibition curve with a large enough effect; inconclusive = small, poorly fitted or top-dose-only effect, or another doubt; inactive = no such curve, though single readings can be large or run the other way;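 note: the enzyme is Sfp with the accession as filed and its product quenches rhodamine fluorescence; potency is the fitted concentration of half-maximal effect; 0% = enzyme reaction without inhibitor and -100% = no enzyme wells; top concentration of the series not given in the record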
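Fluorescence-quenching assay: 15 nM Sfp-PPTase preincubated 15 min at room temperature with compound, then 5 uM rhodamine-CoA and 12.5 uM BHQ-2-labelled YbbR peptide added. Fluorescence (ex 525/em 598 nm) read at start and after 30 min; difference gives rate.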
The depositor's hits bear a star; i = inactive; ? = inconclusive; & = joins results of further samples.

entry	SMILES	TRPV1 potentiator	Sfp inh
1	O=c1c2ccccc2oc2nc(-c3cccs3)n(CCc3ccccc3)c(=O)c12	7	11%
2	CC1(C)CC(=O)C2=C(C1)OC1=C(C(=O)CC(C)(C)C1)C2(C)C	0	8%
3	CCOC(=O)C1CCN(C(=O)c2cn(-c3ccccc3)nc2-c2cccnc2)CC1	4	-3%
4	CC(C)(C)NC(=O)CN(Cc1ccc2c(c1)OCO2)C(=O)CNC(=O)c1cccs1	5	15%
5	CCc1ccc(NC(=S)NNC(=O)c2ccccc2OC(F)F)cc1	20	10%
6	COc1ccc(NC(=O)C2CCN(S(=O)(=O)c3cccc4cccnc34)CC2)cc1OC	8	-5%
7	COc1ccc(O[C@H]2C=C[C@@H](c3ccccc3)O[C@@H]2COC(=O)CC/C(C)=N/OC[C@@H](O)COCc2ccco2)cc1	7	9%
8	CN(CCO)c1nc(N)c2c(N)nc3c(c2c1C#N)CC(=O)N3C1CCCC1	3	50µM*
9	CCOC(=O)N1CCC(NC(=O)C(NC(=O)C2CCCCC2)C(C)C)CC1 (stereo unspecified)	14	24%
10	CCOc1ccc(NC(=O)CN2CCC(NC(=O)C3CCCCC3)CC2)cc1	2	3%
11	COc1ccc(/C=N/n2cnc3c([nH]c4ccccc43)c2=O)cc1COc1ccccn1	-6	?
12	Cc1nn(C)cc1CNC(=O)C1C2CCC(O2)C1C(=O)O (stereo unspecified)	-1	3%
13	O=C1C=CC(=O)N1c1ccc(Sc2ccc([N+](=O)[O-])cc2)cc1	2	8.9µM*
14	Cc1ccnc(NC(=O)CCCOc2ccc(Cl)cc2C)c1	6	-5%
15	COc1ccc(/C(C)=N\NC(=O)c2ccc3c(c2)OCO3)cc1OC	-10	19%
16	O=C1CC(c2ccccc2Cl)c2c(sc3c(=O)[nH]c(CCl)nc23)N1 (stereo unspecified)	-5	3%
17	CC(C)(C)C(C(Oc1ccc(Cl)cc1)n1cncn1)n1nnnc1C(c1cccc(Cl)c1)N1CCCCC1 (stereo unspecified)	-6	-1%
18	CN(C)c1ccc(CNCCC2CCOC(C)(C)C2)cc1 (stereo unspecified)	-17	11%
19	Cn1c(SCC(=O)Nc2cc(=O)n(C)c(=O)n2C)nnc1-c1cccs1	-5	1%
20	CCc1nnc(NC(=O)CSc2ccc(-c3ccc(F)cc3)nn2)s1	-5	-11%
21	CCCCc1ccc(NC(=O)COc2ccc(C(=O)Nc3ccccc3C)cc2)cc1	-11	13%
22	Cc1ccc2c(C(=O)CN3CC(C)CC(C)C3)c(C)[nH]c2c1 (stereo unspecified)	1	6%
23	CCOc1ccc(N(CC(=O)NC(C)CC)S(=O)(=O)c2c(C)noc2C)cc1 (stereo unspecified)	14	15%
24	COc1cc2c(cc1OC)C(c1cc3cccc(C)c3[nH]c1=O)N(C(=O)c1ccco1)CC2 (stereo unspecified)	-3	13%
25	CCn1c2ccccc2c2cc(C3C(C#N)=C(N)OC4=C3C(=O)CC(C)(C)C4)ccc21 (stereo unspecified)	9	8%

Reformatted with two lines to a compound: 14 of the compounds above.
Every second line gives: TRPV1 potentiator | Sfp inh
12	Cc1nn(C)cc1CNC(=O)C1C2CCC(O2)C1C(=O)O (stereo unspecified)
 : -1 | 3%
13	O=C1C=CC(=O)N1c1ccc(Sc2ccc([N+](=O)[O-])cc2)cc1
 : 2 | 8.9µM*
14	Cc1ccnc(NC(=O)CCCOc2ccc(Cl)cc2C)c1
 : 6 | -5%
15	COc1ccc(/C(C)=N\NC(=O)c2ccc3c(c2)OCO3)cc1OC
 : -10 | 19%
16	O=C1CC(c2ccccc2Cl)c2c(sc3c(=O)[nH]c(CCl)nc23)N1 (stereo unspecified)
 : -5 | 3%
17	CC(C)(C)C(C(Oc1ccc(Cl)cc1)n1cncn1)n1nnnc1C(c1cccc(Cl)c1)N1CCCCC1 (stereo unspecified)
 : -6 | -1%
18	CN(C)c1ccc(CNCCC2CCOC(C)(C)C2)cc1 (stereo unspecified)
 : -17 | 11%
19	Cn1c(SCC(=O)Nc2cc(=O)n(C)c(=O)n2C)nnc1-c1cccs1
 : -5 | 1%
20	CCc1nnc(NC(=O)CSc2ccc(-c3ccc(F)cc3)nn2)s1
 : -5 | -11%
21	CCCCc1ccc(NC(=O)COc2ccc(C(=O)Nc3ccccc3C)cc2)cc1
 : -11 | 13%
22	Cc1ccc2c(C(=O)CN3CC(C)CC(C)C3)c(C)[nH]c2c1 (stereo unspecified)
 : 1 | 6%
23	CCOc1ccc(N(CC(=O)NC(C)CC)S(=O)(=O)c2c(C)noc2C)cc1 (stereo unspecified)
 : 14 | 15%
24	COc1cc2c(cc1OC)C(c1cc3cccc(C)c3[nH]c1=O)N(C(=O)c1ccco1)CC2 (stereo unspecified)
 : -3 | 13%
25	CCn1c2ccccc2c2cc(C3C(C#N)=C(N)OC4=C3C(=O)CC(C)(C)C4)ccc21 (stereo unspecified)
 : 9 | 8%

Next section
entry	SMILES	TRPV1 potentiator	Sfp inh
26	CSC1=C(C#N)C(c2cccs2)CC(=O)N1C (stereo unspecified)	-1	1%
27	COc1ccc([C@]23Cc4c(ccc5ccccc45)C(O2)C2=C(CC4(CCCCC4)OC2=O)O3)cc1	i	15%
28	CCc1ccc(OCC(=O)N/N=C2\CC(=O)c3ccccc32)cc1	1	-4%
29	O=C1[C@@H]2Cc3c([nH]c4ccccc34)[C@@H](c3ccccc3)N2C(=O)[C@@H]2Cc3c([nH]c4ccccc34)[C@@H](c3ccccc3)N12	?	?
30	Cc1sccc1C1C(C#N)=C(N)SC(N)=C1C#N	-15	18µM*
31	CCOC(=O)c1nnn(-c2nc(OC)nc(N3CCCCC3)n2)c1-c1ccccc1	-10	-9%
32	Cc1cc(C)c(C)c(S(=O)(=O)NCc2ccco2)c1C	-3	7%
33	COc1ccc(C)cc1NC(=O)c1ccc(-c2ccc(C(C)=O)cc2)o1	2	3%
34	CCCn1c2c(c(O)c(C(=O)Nc3ccccn3)c1=O)CCCC2	11	7%
35	C/C(N)=C(/C#N)C(=O)CSc1nc2ccccc2c(=O)n1-c1ccc(C)cc1	-12	-2%
36	CCSc1nnc2n(N)c(=O)c3ccccc3n12	1	22%
37	CCCCCOc1ccc(/C=c2\sc3ncnn3c2=O)cc1	5	8%
38	CC(/C=C/c1ccc2c(c1)OCO2)=N/NC(=O)C1COc2ccccc2O1 (stereo unspecified)	15	-8%
39	O=C(CSc1nc2[nH]ncc2c(=O)n1-c1ccccc1)N1CCCCCC1	5	18%
40	O=C1CCCC2=C1C(c1c(Cl)nc3sccn13)C1=C(CCCC1=O)N2	-3	2%
41	COc1cc(N2CCCC2)c(OC)cc1/C=c1/sc2nc3ccccc3n2c1=O	0	-11%
42	CC(=O)Nc1nc2c(c3c1c(=O)oc1ccccc13)CC(C)CC2 (stereo unspecified)	-7	18%
43	ONc1cccnc1-n1nc(C(F)(F)F)cc1C(F)(F)F	1	8.9µM*
44	O=C(OCCC1Oc2cccnc2NC1=O)c1ccc([N+](=O)[O-])cc1 (stereo unspecified)	2	13%
45	N#CC1=C(N)C(C#N)(C#N)C(c2cccnc2)C2CCCC=C12 (stereo unspecified)	-7	18µM*
46	CCc1cc(=O)oc2cc(OCC(=O)N3CCc4ccccc43)ccc12	?	17%
47	CO[C@H]1C=CO[C@@]2(C)Oc3c(C)c(O)c4c(O)c(c5c(c4c3C2=O)NC2(CCN(CC(C)C)CC2)N=5)=NC(=O)C(C)=CC=C[C@H](C)[C@H](O)[C@@H](C)[C@@H](O)[C@@H](C)[C@H](OC(C)=O)[C@@H]1C	-3	9%
48	N#Cc1c(Cl)nc(-c2cccnc2)nc1-c1ccccc1	17	0%
49	CC[n+]1c(C)sc2sc3ccccc3c21	-11	2.8µM*
50	CC(C)C(C)NC(=O)COC(=O)c1cc(S(=O)(=O)N(C)C)ccc1N1CCCC1 (stereo unspecified)	18	12%
51	O=C(CSc1ncnc2c1cnn2CCc1ccccc1)Nc1ccc(F)cc1	-12	19%
52	COc1ccc(-n2c(=S)[nH]c3sc4c(c3c2=O)CCc2ccccc2-4)cc1	2	18µM*
53	O=C(Nc1ccccc1Cl)c1cccc(NS(=O)(=O)c2ccccc2)c1	5	13%
54	COc1ccc2c(c1)O[C@H](c1ccc3c(c1)OCO3)[C@@H](OC(=O)N[C@H](C)C1CCCCC1)C2=O	12	?
55	O=C(O)CC12CSc3[nH]c(=O)sc3C1c1ccccc1OC2=O (stereo unspecified)	27	14µM*
56	Cc1ccc2[nH]c3c(c2c1)CN(C(=O)CN1CCN(c2ccccc2)CC1)CC3	-11	3%
57	CCN1CCc2c(sc(NC(=O)c3ccc4ccccc4c3)c2C(N)=O)C1	10	-7%
58	CCN(CC)CCCN1C(=O)C(=O)/C(=C(/O)c2ccc(OC)c(Cl)c2)C1c1ccco1 (stereo unspecified)	9	?
59	CCn1cc(C(=O)NC2CC3CCC2C3)c(=O)c2ccc(C)nc21 (stereo unspecified)	2	17%
60	Cc1cc(C)n2c(SCC(=O)Nc3ccc(Cl)cn3)nnc2n1	-3	-15%
61	NC[C@@H]1O[C@H](O[C@H]2[C@@H](O)[C@H](O[C@@H]3[C@@H](O)[C@H](N)C[C@H](N)[C@H]3O[C@H]3O[C@H](CO)[C@@H](O)[C@H](O)[C@H]3N)O[C@@H]2CO)[C@H](N)[C@@H](O)[C@@H]1O	2	22%
62	CCCCNC(=O)C(c1ccc(OCC(=O)OC)c(C(=O)OC)c1)N(CCc1ccccc1)C(=O)CCCCCN1C(=O)NC(c2ccc(-c3ccccc3)cc2)C(C(=O)OCc2ccccc2)=C1C (stereo unspecified)	?	9%&18%
63	CN(C)c1ccc(/C=N/NC(=O)CN2CCN(c3ccc(F)cc3)CC2)cc1	-18	5%
64	CCn1c(SCC(=O)N2CCN(c3ccccc3)CC2)nnc1-c1ccncc1	10	-6%
65	CC(C)(C)C1CC=C2C(C#N)=C(N)C(C#N)(C#N)C(c3cccs3)C2C1 (stereo unspecified)	0	-13%
66	Cc1ccc2nc(-c3ccc(N4C(=O)CC(N5CCCC(C)C5)C4=O)cc3)sc2c1 (stereo unspecified)	11	-33%
67	Cn1c(=O)c2[nH]c(SCc3ccccn3)nc2n(C)c1=S	16	-1%
68	COc1ccc(C(=O)NCC(=O)OCn2nnc3ccccc3c2=O)cc1OC	?	0%
69	CCOC(=O)C1CCN(S(=O)(=O)c2c(Cl)ccc3nonc23)CC1	-2	-17%
70	COc1ccc(-c2ccc(-c3nnc(-c4ccncc4)o3)cc2)cc1	21	-2%
71	O=C(Oc1cccc(O)c1)C1CCCCC1	18	?
72	Cc1cc(C)n(-c2nc3sc4c(c3c(=O)[nH]2)CCCC4)n1	-6	26%
73	Cc1cc(C(=O)OCC(=O)Nc2cc(S(=O)(=O)N(C)C)ccc2C)c(C)o1	5	5%
74	Cc1cc(S(=O)(=O)N2CCCC(N(C)CCc3ccccn3)C2)c(C)s1 (stereo unspecified)	-3	16%
75	Cc1oc(/N=C/c2c(O)ccc3ccccc23)c(C#N)c1C	12	-20%

Additional compounds follow.
entry	SMILES	TRPV1 potentiator	Sfp inh
76	COc1ccc(-c2nnc3n2C(C)(C)Cc2cc(OC)c(OC)cc2-3)cc1	3	4%
77	O=S(=O)(c1ccc(N2CCN(Cc3ccc4c(c3)OCO4)CC2)nc1)N1CCOCC1	-8	8%
78	Cc1ccnn2c(-c3ccccc3)c3c(=O)n(C)c(=O)n(C)c3c12	8	13%
79	C[C@@H]1CN(c2c(F)c(N)c3c(=O)c(C(=O)O)cn(C4CC4)c3c2F)C[C@H](C)N1	6	14%&-9%
80	c1ccc(CSc2nnc3c4ccccc4c4ccccc4c3n2)cc1	8	5%
81	CCc1ccc(-c2csc(NC(=O)COC(=O)CCc3nc4ccccc4s3)n2)cc1	11	14%
82	Nc1c(C(=O)Nc2ccccc2)sc2nc(-c3cccnc3)ccc12	-11	7.9µM*
83	COc1ccc2nc(C)c(C(=O)OCCN(C)C)cc2c1	12	0%
84	Cc1ccc2c(c1)[nH]c1c(=O)n(CCC3=CCCCC3)cnc12	1	29%
85	CCN1C(=NCCc2cccs2)N[C@@H](CCc2ccccc2)[C@H](C(=O)NCCc2cccs2)[C@H]1C	10	2%
86	Cc1ccc(N(C(=O)C2COc3ccccc3O2)C(C(=O)NC2CCCCC2)c2cn(C)nc2C)cc1 (stereo unspecified)	4	12%
87	CCc1cc2c(=O)nc3n(c2s1)Cc1ccccc1/C3=C(/O)c1ccc(F)cc1	5	?
88	CCC(=O)NC(/C=C/c1ccccc1)c1cc([N+](=O)[O-])c2cccnc2c1O (stereo unspecified)	23	4%
89	Brc1ccc(-c2nn3c(-c4ccncc4)nnc3s2)o1	-13	12%
90	Cc1ccc(C2(C(F)(F)F)N=C3Sc4cc(C)ccc4N3C(=O)N2)cc1 (stereo unspecified)	-1	24%
91	COc1cccc2sc(Nc3nc(-c4ccccn4)cs3)nc12	-5	-20%
92	CC1CC(OC(=O)CN2CCCCC2)CC(C)(C)C1 (stereo unspecified)	-11	17%
93	CCc1ccc(Nc2n[n+](-c3ccccc3)c(/C=C/c3ccccc3)s2)cc1	1	50µM*
94	COc1ccc(NC(=S)Nc2cc(S(=O)(=O)N3CCCCC3)ccc2OC)cc1	-2	-9%

A portion of the library, so the mix of outcomes need not match the whole.
